Screens (PubChem)
Anaer choline gr: blocks anaerobic gram-negative growth on choline; Gram-negative bacterium anaerobic choline minimal medium, absorbance growth; active compounds read low; many inactives read as strong as hits in the columns shown; calls only; 0.2% of 55,000 active; AID 1963822;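 active means growth z-score on choline under -2 at 7 or 20 h with little or no fall on glycerol, limits in tiers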;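 further: stock transfer was 300 nL into about 50 µL; the organism is E. coli; final concentration not given here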
Anaer choline gr early: recorded beside Anaer choline gr, whose call it bears; z-score; measured here: choline growth z-score, timepoint 1;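 score of optical density at 7 h as mean of two plates; lower means less growth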
Active calls of the source: *; i = inactive; & = joins results of further samples. A portion of the library; rates above refer to the full screens.

Anaer choline gr | Anaer choline gr early | Molecule
i | -0.85 | CNC(=O)c1ccc(-c2nc(CN3CCN(C(=O)Nc4ccc5c(c4)OCO5)CC3)c(C)o2)cc1
i | 0.12 | Oc1c(Cl)cc(Cl)c2cccnc12
i | 0.24 | CC1CCCCN1S(=O)(=O)c1ccc2c(c1)CCC(=O)N2CC(=O)N1CCc2ccccc21 (stereo not given)
i | 0.62 | COc1ccc(C(=O)Oc2cc(N)n(S(=O)(=O)c3ccc(F)cc3)n2)cc1
i | 0.7 | Cc1cccc(C(=O)Nc2cnc3ccccn3c2=O)c1
i | -0.87 | CCN1C(=O)C2(c3ccccc31)c1c(oc3cc(C)c(C)cc3c1=O)C(=O)N2CC1CCCO1 (stereo not given)
i | 0.43 | O=C(O)c1cc(N2CCN(C(c3ccc(F)cc3)c3ccc(F)cc3)CC2)ccc1NC(=O)C1CC1
i | 0.54 | CCCCCN(c1nc2nc(C)c(Cl)c(C)n2n1)S(=O)(=O)c1ccc(C)cc1
i | -1.08 | Cn1c(SCc2ccc(F)cc2)nc2c(=O)[nH]cnc21
i | 1.02 | CC(C)CCNC(=O)N1Cc2c(sc3c2CCCC3)-n2cccc2C1C (stereo not given)
i | 0.68 | O=S(=O)(c1ccccc1)c1nc(-c2ccc(Cl)cc2)oc1NCC1CCCO1 (stereo not given)
i | 1.06 | CCc1ccc(-c2[nH]nc3c2C(c2ccc(Cl)cc2)C2=C(CC(C)(C)CC2=O)N3)cc1 (stereo not given)
i | 1.06 | O=C(CCn1nnc2cc(-c3noc(C4CCCC4)n3)ccc21)N1CCOCC1
i | 1.93 | CC1CC(=O)N(CC(=O)NC2CCCCC2)c2cc(S(=O)(=O)N3CCCCC3)ccc2S1 (stereo not given)
i | 0.55 | COc1cccc(NC(=O)n2ncc3c(C)cccc32)c1
i | -1.46 | CCOC(=O)c1cn[nH]c1S(=O)(=O)Nc1ccccc1
i | -0.42 | COc1ccc(N2NC(=O)C(C)(C)C2=O)cc1
i | 1.16 | CC1(C(=O)NC2CCCCC2)Cn2c(cc3sccc32)C(=O)N1Cc1ccccc1Cl (stereo not given)
i | -0.23 | CC(C)n1cnc(S(=O)(=O)N2CCCC(C(=O)N3CCN(c4ncccn4)CC3)C2)c1 (stereo not given)
i | -1.1 | Cc1cn(C)c(CC(=O)Nc2cccnc2)c1C(=O)O
i | -0.59 | COc1ccccc1NC(=O)Cn1c(=O)n(Cc2nc(C)no2)c(=O)c2ccccc21
i | 0.3 | Cc1ccc(-c2csc(Cc3nc(-c4ccc(C)cc4)no3)n2)cc1
i | 0.09 | CC(C)CN(CC(C)C)c1ncc(C(=O)O)cc1NS(=O)(=O)c1ccc(Br)cc1
i | -0.24 | Cn1c(SCc2ccccc2)nnc1-c1sc2ncccc2c1N
i | 0.58 | CCCCC[C@H](O)/C=C/[C@H]1[C@H](O)CC(=O)[C@@H]1C/C=C\CCCC(=O)OC
i | 0.6 | CCCCNC(=O)c1cc2c(Cl)ccc3c2n1CC(CC)O3 (stereo not given)
i | -0.1 | Cc1ccc(C)c(Cn2cnc3ccccc3c2=O)c1
i | 0.1 | CCn1cc(CN2CCCC(c3nc(-c4ccc(F)cc4)n[nH]3)C2)cn1 (stereo not given)
i | 0.21 | COc1nc(C)ccc1-c1noc(-c2ccccc2)n1
i | 1.35 | Cc1nn(C(=O)Nc2ccccc2F)c2ccccc12
i | -1.55 | CCOC(=O)c1cccc(NC(=O)Cn2cc(-c3nc(-c4ccc(C)cc4)no3)ccc2=O)c1
i | 0.58 | CCN(CC)C(CNS(=O)(=O)c1ccc(C)cc1)c1ccccc1 (stereo not given)
i | -1.18 | COC(=O)c1nc2ccccc2nc1N1CCN(C2CCCCC2)CC1
i | 0.47 | O=C(NC1CCCCC1)c1cccc(N2C(=O)CCS2(=O)=O)c1
i | -0.32 | COc1ccc2c(c1)c1ncn(CCc3ccc(Cl)cc3)c(=O)c1n2C
i | -1.43 | Cc1ccc(S(=O)(=O)N2CCC(c3noc(-c4ccccc4)n3)CC2)cc1
i | -0.59 | O=S(=O)(Nc1ccc2nnc(-c3ccccc3)n2n1)c1ccc(Cl)cc1
i | 0.6 | COc1ccc(-c2csc(NC(=O)CS(=O)(=O)c3ccc(C)cc3)n2)c(OC)c1
i | -0.09 | O=C(c1cn(-c2cccc(Cl)c2)nn1)N1CCCCC1
i | -0.19 | Cc1noc(NS(=O)(=O)c2cccc3c(N(C)C)cccc23)c1C
i | -1.58 | Cc1noc(-c2ccc(S(=O)(=O)NC3CC3)s2)c1C
i | -1.35 | CCOC(=O)c1c(C)[nH]c(C)c1S(=O)(=O)N1CCCC(C(=O)Nc2ncccc2C)C1 (stereo not given)
i | -0.37 | CN(CCc1noc(-c2ccc(C(=O)NCC3CCCO3)cc2)n1)C(=O)Nc1ccc(Cl)cc1 (stereo not given)
i | -3.18 | Cn1cnc(S(=O)(=O)Nc2cccc(F)c2)c1
i | 1.08 | CC(=O)N1CCCC1c1nc2ccccc2n1CCC(C)C (stereo not given)
i | -0.9 | O=C(CSc1nnc2ccc(C(=O)Nc3cccc(F)c3)cn12)Nc1ccc(Br)cc1
i | -0.32 | COc1ccc(Cl)cc1Nc1c(C(=O)N2CCOCC2)cnc2ccccc12
i | -0.43 | Cc1nn(-c2ccc(Cl)cc2)c2sc(C(=O)Nc3ccc(F)cc3)cc12
i | -1.15 | CCCCC[C@@](C)(O)/C=C/[C@H]1C(=O)C[C@H](O)[C@@H]1C/C=C\CCCC(=O)O
i | 0.29 | O=C(O)c1ccc(/C=C2/SC(=S)N(c3cccc(C(F)(F)F)c3)C2=O)cc1

Whole records from above:
`COc1ccc2c(c1)c1ncn(CCc3ccc(Cl)cc3)c(=O)c1n2C` is listed with Anaer choline gr = i; Anaer choline gr early = -0.32
`Cc1ccc(S(=O)(=O)N2CCC(c3noc(-c4ccccc4)n3)CC2)cc1` is listed with Anaer choline gr = i; Anaer choline gr early = -1.43

(list continues)
Anaer choline gr | Anaer choline gr early | Molecule
i | -1.15 | O=C(O)c1cc(N2CCN(c3ccccc3F)CC2)ccc1NS(=O)(=O)c1ccc(F)cc1
i | -1.14 | Cc1cc(C)cc(N(CC(=O)NC2CCCCC2)S(=O)(=O)c2c(C)nn(C)c2C)c1
i | -0.04 | Cc1cc(C)n2ncc(C(=O)Nc3c(C)n(C)n(-c4ccccc4)c3=O)c2n1
i | 0.22 | CCCCC(SC1=Nc2ccccc2C2=NC(Cc3c[nH]c4ccccc34)C(=O)N12)C(=O)OCC (stereo not given)
i | -0.35 | CCOc1ccc(-n2nnc(-c3nc(-c4cccc(OC)c4)cs3)c2N)cc1
i | 0.06 | CC(C)c1cc(-c2nnc3sc(COc4ccc(Cl)cc4)nn23)n[nH]1
i | 0.01 | O=C(C1CCCCC1)N1CCCN(c2ccc(=O)n(-c3ccccc3)n2)CC1
i | 0.06 | CN(C(=O)CSc1nnc(-c2ccc(Cl)cc2)o1)C1CCCCC1
i | 0.72 | Cc1c(C(=O)NC2CCCCC2)sc2nc3n(c(=O)c12)CCCCC3
i | -0.24 | COc1cc(NC(=O)c2ccc(-n3cnc(NC(C)=O)c3)cc2)cc(OC)c1
i | 0.4 | CC(=O)Nc1ccc(Nc2nc(C)cc(N3CCOCC3)n2)cc1
i | 0.26 | Cc1nc(-n2[nH]c(C)c(Cc3ccccc3Cl)c2=O)sc1C(=O)N1CCCC1
i | 0.17 | CCNC(=O)c1ccc2c(c1)CCCN2S(C)(=O)=O
i | 0.45&-0.29 | COCCCN1CCC(NC(=O)c2cc(Cl)c(N)c3c2OCC3)CC1
i | 0.58 | O=C(c1nnc(-c2csc(S(=O)(=O)N3CCOCC3)c2)o1)N1CCCC1
i | 0.15 | CCc1cc(C2CCCN2C(=O)c2cc3nc(C4CC4)cc(C(F)(F)F)n3n2)on1 (stereo not given)
i | 2.97 | C=CCNc1nc(Nc2ccc(F)cc2)c2cnn(-c3ccccc3)c2n1
i | -0.15 | Cc1nc(CN2C(=O)COc3ccc(S(=O)(=O)N4CCCCC4C)cc32)no1 (stereo not given)
i | -2.01 | CNC(=O)C(C)n1nc(C)c2nn(-c3ccccc3)c(-n3cccc3)c2c1=O (stereo not given)
i | 1.17 | O=S(=O)(c1cc(-c2noc(C3CCC3)n2)cs1)N1CCc2ccccc2C1
i | 0.07 | COc1ccc(CCNC(=O)c2cnc3sc(N4CCCCC4)nn3c2=O)cc1OC
i | 0.23 | Cc1nc(-c2cc(S(=O)(=O)Nc3cccc(Br)c3)c(C)s2)cs1
i | -0.86 | CC(C)N1C(=O)CSc2cnn(CC(=O)NC3CCCC3)c(=O)c21
i | 0.88 | CN(C)c1ccc(-c2nc3ncccn3c2Nc2ccccc2)cc1
i | -0.16 | CCc1ccc(NC(=O)Nc2cc3[nH]c(=O)[nH]c3cc2C)cc1
i | 0.71 | CCn1nnc2cc(-c3noc(CNC(=O)Cc4ccc(Cl)cc4)n3)ccc21
i | 0.87 | O=C(NCc1c(-c2ccc(Cl)cc2)nc2n1CCS2)C1CCCC1
i | -0.96 | Cc1ccc(Cn2nc3n(CCC(=O)NC(C)C)c(=O)c4ccccc4n3c2=O)cc1
i | 1.25 | COc1cccc(C(=O)COc2cc(O)c3c(=O)cc(-c4ccccc4)oc3c2)c1
i | -0.66 | COc1ccc(-n2ccc(=O)c(-c3nc(-c4cccc(Br)c4)no3)n2)cc1
i | 1.42 | CC1(C(=O)NC2CCCCC2)Cn2c(cc3occc32)C(=O)N1Cc1ccccc1 (stereo not given)
i | 3.17 | c1ccc(-c2noc3c(NCc4ccc5c(c4)OCO5)ncnc23)cc1
i | -0.84 | Cc1cc2c(cc1S(=O)(=O)NC1CC1)N(C(=O)C1CCC1)CC2
i | -0.68 | Cc1ccc(NC(=O)C2CCCN(S(=O)(=O)c3cn(C)cn3)C2)nc1 (stereo not given)
i | -1.45 | CC1CN(C(=O)Cc2ccc(Cl)cc2)c2ccccc2NC1=O (stereo not given)
i | -0.64 | O=C(CCC(=O)N1Cc2ccccc2Oc2ncccc21)NCCc1ccc(Cl)cc1
i | 0.58 | CCOc1ccc(NC(=O)CC(C)O)cc1 (stereo not given)
i | 1.06 | O=C(NCc1ccccc1)c1ccc2nc3ccc(Cl)cc3c(=O)n2c1
i | -0.17 | CCN(Cc1ccc(Cl)cc1)Cc1cc(=O)n2nc(C(C)C)sc2n1
i | -0.04 | Cc1cccc(-c2nc3ccc(C(=O)NC4CC4)cc3nc2-c2cccc(C)c2)c1
i | 0.81 | CCOC(=O)c1c(C)[nH]c(C(=O)N2CCC(CC(=O)N3CCN(c4ccccn4)CC3)CC2)c1C
i | 0.38 | CCN(CC)Cc1c(O)ccc2oc(C)c(C(=O)NC3CCCC3)c12
i | -0.7 | O=C(NC1CC1)c1nn(-c2ccc(Cl)cc2)nc1CO
i | -0.49 | CC(=O)N[C@H](Cc1c[nH]c2ccccc12)C(=O)OCc1cc(C(F)(F)F)cc(C(F)(F)F)c1
i | -1.45 | Cc1ccccc1S(=O)(=O)N1CCN(c2cc(=O)n3nc(-c4ccccc4)sc3n2)CC1
i | -0.06 | CCN(Cc1ccccc1)c1ncc(NS(=O)(=O)CC)cc1C(=O)O
i | 0.12 | Cc1ccc(S(=O)(=O)N(C)CC2(C)CCOCC2)cc1F
i | -0.55 | O=C(O)CCC(=O)N1CCc2cc(S(=O)(=O)NCC3CCCO3)ccc21 (stereo not given)
i | -0.6 | C=CCSCC1Nc2cc(Cl)c(S(N)(=O)=O)cc2S(=O)(=O)N1 (stereo not given)
i | -0.74 | O=S(=O)(c1cccc(Cl)c1)N1CCC(N2CCOCC2)CC1

Of the compounds above, ten have two or more sulfur atoms.
Anaer choline gr | Anaer choline gr early | Molecule
i | 1.93 | CC1CC(=O)N(CC(=O)NC2CCCCC2)c2cc(S(=O)(=O)N3CCCCC3)ccc2S1 (stereo not given)
i | -0.24 | Cn1c(SCc2ccccc2)nnc1-c1sc2ncccc2c1N
i | 0.6 | COc1ccc(-c2csc(NC(=O)CS(=O)(=O)c3ccc(C)cc3)n2)c(OC)c1
i | -1.58 | Cc1noc(-c2ccc(S(=O)(=O)NC3CC3)s2)c1C
i | 0.29 | O=C(O)c1ccc(/C=C2/SC(=S)N(c3cccc(C(F)(F)F)c3)C2=O)cc1
i | 0.58 | O=C(c1nnc(-c2csc(S(=O)(=O)N3CCOCC3)c2)o1)N1CCCC1
i | 1.17 | O=S(=O)(c1cc(-c2noc(C3CCC3)n2)cs1)N1CCc2ccccc2C1
i | 0.23 | Cc1nc(-c2cc(S(=O)(=O)Nc3cccc(Br)c3)c(C)s2)cs1
i | -1.45 | Cc1ccccc1S(=O)(=O)N1CCN(c2cc(=O)n3nc(-c4ccccc4)sc3n2)CC1
i | -0.6 | C=CCSCC1Nc2cc(Cl)c(S(N)(=O)=O)cc2S(=O)(=O)N1 (stereo not given)

New compounds follow:
Anaer choline gr | Anaer choline gr early | Molecule
i | -0.37 | CC(C)C(=O)Nc1ccc(SCc2nnc(-c3ccccc3)o2)cc1
i | -0.53 | CCNC(=O)C1CCN(S(=O)(=O)c2c(C)[nH]c(C)c2C(=O)N2CCCCC2)CC1
i | -0.34 | Cc1cc(O)c2c(c1)C(=O)c1cc(O)cc(O)c1C2=O
i | -1.66 | Cc1cccc(CN2CCCC2c2c(C)noc2C)c1 (stereo not given)
i | -0.04 | Cc1cc(C)c(S(=O)(=O)c2c(C(=O)N3CCSCC3)cnc3ccc(Cl)cc23)cc1C
i | -0.4 | CCCCN1CCN(Cc2nc3nc(C)cc(N4CCN(CC)CC4)n3n2)CC1
i | -0.47 | O=S(=O)(c1ccc(Cl)cc1)N1CCCC(c2nc(-c3cccc(F)c3)no2)C1 (stereo not given)
i | -0.76 | Cc1cc(C)n(-c2cc(Nc3ccc(Br)cc3)ncn2)n1
i | -1.74 | O=c1nc(NCc2ccccc2)c2ccccc2[nH]1
i | -0.44 | CCCCN1CCS(=O)(=O)c2c(Cl)c(N3CCOCC3)nc(Oc3ccc(F)cc3)c21
i | -0.17 | CC(C)c1cc(C2CCCN2S(=O)(=O)c2ccc(Cl)cc2)no1 (stereo not given)
i | -0.13 | COc1ccc(NC(=O)c2cc3c(=O)oc4ccccc4c3n2C)cc1OC
i | -0.73 | CC1CN(C(=O)Nc2ccc(C(=O)NCc3ccc4c(c3)OCO4)cc2)c2ccccc2S1 (stereo not given)
i | 0.29 | CC1CC(C)CN(S(=O)(=O)N2CCCC(C(=O)NC3CCCCCCC3)C2)C1 (stereo not given)
